KCNQ2 enhance – potentiators of rat KCNQ2 potassium channel. O88943. CHO-K1 KCNQ2, FluxOR thallium flux fluorescence; hits give high values. B-score at 10 µM. hit rate 0.54% among 310,000. AID 2239;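 active means fluorescence ratio B-score at least 3 SD of library B-scores, with initial fluorescence B-score within 3 SD, cut at about 5.3 in these data; same plate scores as AID 2156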;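 further: B-score of peak minus minimum over baseline fluorescence ratio after K+ and Tl+ stimulus; positive B-score means potentiation of KCNQ2 with more thallium influx and brighter signal; only the inactives scoring about 0 or higher are listed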
Target sequence (O88943 whole entry, looked up): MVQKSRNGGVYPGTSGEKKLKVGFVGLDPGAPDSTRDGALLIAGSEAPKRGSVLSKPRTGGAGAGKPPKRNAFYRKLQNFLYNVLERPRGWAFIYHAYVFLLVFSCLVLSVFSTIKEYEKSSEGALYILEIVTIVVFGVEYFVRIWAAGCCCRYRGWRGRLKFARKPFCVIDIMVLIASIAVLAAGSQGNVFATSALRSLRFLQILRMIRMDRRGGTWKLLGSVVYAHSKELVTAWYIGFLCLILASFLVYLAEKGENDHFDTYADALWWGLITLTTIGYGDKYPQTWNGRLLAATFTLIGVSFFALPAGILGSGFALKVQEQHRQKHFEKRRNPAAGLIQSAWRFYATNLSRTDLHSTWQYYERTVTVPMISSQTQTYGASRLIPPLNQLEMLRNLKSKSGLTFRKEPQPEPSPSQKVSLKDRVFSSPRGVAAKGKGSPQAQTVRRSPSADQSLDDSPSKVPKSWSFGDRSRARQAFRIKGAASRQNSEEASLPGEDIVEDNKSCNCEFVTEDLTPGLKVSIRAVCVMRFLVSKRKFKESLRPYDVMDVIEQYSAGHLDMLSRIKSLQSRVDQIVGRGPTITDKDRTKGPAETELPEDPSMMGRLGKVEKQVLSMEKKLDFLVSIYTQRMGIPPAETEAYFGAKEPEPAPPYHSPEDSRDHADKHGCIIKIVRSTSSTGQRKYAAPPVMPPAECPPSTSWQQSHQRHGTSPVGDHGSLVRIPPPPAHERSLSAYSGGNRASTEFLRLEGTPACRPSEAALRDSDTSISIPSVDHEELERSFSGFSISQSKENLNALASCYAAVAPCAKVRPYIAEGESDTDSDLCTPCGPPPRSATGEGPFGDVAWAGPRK
KCNQ2 enhance baseline – further read-out of KCNQ2 enhance, marked with its call; B-score; compound at 10 µM; measured here: initial fluorescence intensity artifact check;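 brightness before thallium and not channel activity; 0 = typical well and far values either way flag optical interference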
* = called active by the depositor; & = joins results of further samples. This is a subset. The share of hits here may be higher or lower than overall.

The opening two entries as a preview:
SMILES	KCNQ2 enhance	KCNQ2 enhance baseline
CC(C)n1c(-c2cccnc2)nc2cnccc21	1.8	-0.08
COc1cc(NC2c3ncccc3C(=O)N2Cc2ccco2)cc(OC)c1OC (configuration not stated)	0.6	-2.32

The listing, from the start:
SMILES	KCNQ2 enhance	KCNQ2 enhance baseline
CC(C)n1c(-c2cccnc2)nc2cnccc21	1.8	-0.08
COc1cc(NC2c3ncccc3C(=O)N2Cc2ccco2)cc(OC)c1OC (configuration not stated)	0.6	-2.32
COc1cccc(S(=O)(=O)N2CCN(Cc3ccc4c(c3)OCO4)CC2)c1	0.22	-1.22
C#CCOCCOCCOCCNc1nc(N2CCN(C(=O)[C@H](CCCCN)n3cc([C@@H](N)C(C)CC)nn3)CC2)nc(N2CCN(C(=O)[C@H](Cc3ccc(O)cc3)n3cc([C@@H](N)C(C)CC)nn3)CC2)n1 (some centres not stated)	0.05	0.61
O=C(Oc1c(CN2CCOCC2)cc(Cl)c2cccnc12)c1ccccc1F	5.13	1.11
CCOc1ccc(NS(=O)(=O)c2ccc(OCC(=O)NCCCOC)cc2)cc1	0.68	-1.64
O=C(O)CC1(O)C(=O)N(Cc2ccccc2)c2ccccc21 (configuration not stated)	1.22	-0.1
CCc1ccc(NC(=O)c2ccccc2NC(=O)C2CCCO2)cc1 (configuration not stated)	0.47	2.3
Cc1nnc(SCC(=O)Nc2ccccc2C(=O)NC2CC2)s1	0.03	-1.08
CC(C(=O)Nc1ccc(F)c(F)c1)N1CCN(C)CC1 (configuration not stated)	0.39	-0.26
O=C(c1cccc2c1C(=O)N(Cc1cccnc1)C2)N1CCN(c2ccccc2)CC1	1.72	1.5
O=S(=O)(NCCCCCNS(=O)(=O)c1ccc(F)cc1)c1ccc(F)cc1	1.12	-0.07
O=C(O)Cn1ccc2cc(S(=O)(=O)N3CCCCCC3)ccc21	1.98	-0.84
O=C(/C=C/NNC(=O)c1ccc(Br)cc1)c1ccccc1	0.88	1.7
Cc1ccc(S(=O)(=O)N2CCCOC2CNC(=O)C(=O)NCCN2CCOCC2)cc1 (configuration not stated)	0.2	2.13
CCN(C(=O)c1cc2c(=O)n3ccccc3nc2n1CCCOC)C1CCCCC1	0.54	-0.17
O=C(NCC(=O)N1CCC(N2CCCCC2)CC1)C1CCCCC1	0.68	-0.16
Cc1ccc(N2CC(C(=O)Nc3cccnc3)CC2=O)cc1Cl (configuration not stated)	0.76	-2.25
Cn1c(=O)c2c(nc(OCCc3ccccc3)n2C)n(C)c1=O	0.24	-0.04
O=S(=O)(c1ccccc1)N1CCN(S(=O)(=O)N2CCCCCC2)CC1	0.17	1.96
COc1ccccc1-c1nnc(NC(=O)c2ccc3c(c2)OCO3)s1	0.88	-0.07
COCCOC(=O)C1=C(C)N=C2SCCC(=O)N2C1c1cccc(Br)c1 (configuration not stated)	0.01	0.21
CCCCC(=O)NC(=S)Nc1cccc(NC(=O)c2ccccc2)c1	0.05	1.04
COc1ccc(NC(=O)NCCN2CCCCC2)cc1	0.45	2.21
C(=C\c1ccccc1)/C=N/Nc1nc2ccccc2s1	0.25	1.31
Cc1ccc(-c2cc(C(=O)O)c3cc(Br)ccc3n2)s1	0.85&0.27	0.41&-0.68
COc1ccc(-c2nnc(SCC(=O)NC3CCCCC3)o2)cc1OC	1.24	1.36
Cc1ccccc1S(=O)(=O)Cc1ccc(C(=O)NC2CCC(C)CC2)o1 (configuration not stated)	0.55	0.62
COc1ccc(-c2n[nH]c(=S)n2-c2ccc(Br)cc2)cc1OC	2.15	-0.48
OCCNc1nc(N2CCCCC2)nc2ccccc12	1.3	-1.22
COc1ccc(/C=N/NC(=O)CN2CCSCC2)cc1C	0.51	3.47
Cc1cccc(C(=O)O/N=C2\CCS(=O)(=O)c3sccc32)c1	0.26	-0.07
O=C(Cc1ccccc1)Nc1ccc2[nH]ncc2c1	0.66	-1.42
CCCC(=O)N(Cc1cccnc1)c1nc2c(OC)ccc(Cl)c2s1	1.07	0
CC(=O)c1ccccc1OCCOCCOc1ccccc1C(C)=O	1.91	-1.58
COc1ccc(NC(=O)CN(C)S(=O)(=O)c2ccc3c(c2)CC(C)N3C(C)=O)cc1OC (configuration not stated)	1.02	-2.85
Cc1ccn2c(NC3CCCC3)c(-c3ccncc3)nc2c1	2.34	0.23
CC(C)(C)c1csc(SCC(=O)Nc2ccc(Cl)cn2)n1	6.96*	0.63*
O=C(N/N=C/c1c(Cl)[nH]c2ccccc12)c1ccc2c(c1)OCCO2	1.32	-0.52
Cc1nn(-c2ccccc2)c(OC(=O)c2cccs2)c1S(=O)(=O)c1ccccc1	2.22	1.72
Cc1ccc(S(=O)(=O)/N=C(/Nc2ccccn2)c2ccc(Cl)cc2)cc1	0.78	-1.25
N#CC1=C(N)SC(N)=C(C#N)C1c1c(Cl)cccc1Cl	0.15	0.15
COCCn1c(SCC(=O)Nc2cc(C(C)(C)C)nn2-c2ccccc2)nnc1-c1ccncc1	0.3	2.31
O=C(N/N=C/c1cccnc1)c1ccc2c(c1)OCO2	0.55	-0.83
Cc1cccc(-c2ncc(CN3CCC(CO)(CCCc4ccccc4)CC3)cn2)c1	0.36	0.36
Nc1c(C(=O)O)sc2nc(-c3ccc(F)cc3)cc(-c3ccccc3)c12	2.07	-1.16
COc1cc(NC(=O)CCCNC(=O)Cn2cnc3sc4c(c3c2=O)CCCC4)cc(OC)c1OC	0.64	-1.87
COc1cc(/C=N/NC(=O)c2nc(C)cc(C)n2)ccc1O	0.07	1.07
COc1ccc(-n2c(Cc3cccn3C)nnc2SCC(=O)Nc2cc(C)cc(C)c2)cc1	0.88	-0.77
O=C(CCCCC(=O)Nc1c(I)cc(I)c(C(=O)O)c1I)Nc1c(I)cc(I)c(C(=O)O)c1I	0.06	-1.22
CC(=O)OCC(OC(C)=O)C(OC(C)=O)C(OC(C)=O)C(=O)Nc1ccccc1C (configuration not stated)	0.24	-0.84
CCN1CCN(CCCNC(=O)C2CCN(c3nnc(-n4cccc4)s3)CC2)CC1	0.1	0.76
Cc1ccc(C(=O)O)cc1NC(=O)Nc1ccc2c(c1)OCO2	0.62	0.17
COc1ccc(NC(=O)CCc2c(C)nc3nc(CNC(=O)c4cccc(F)c4)nn3c2C)cc1OC	0.74	-2.97
COCC(=O)Nc1ccc(Nc2ccccc2)cc1	0.3	0.05
C=C1CCN(c2ccc(C(=O)NCc3ccccc3)cc2[N+](=O)[O-])CC1	0.03	-2.01
Cc1ccc(/C=N/n2c(C)nnc2C)o1	0.85	0.01
N#CC(c1nc2ccccc2nc1OCCO)S(=O)(=O)c1ccccc1 (configuration not stated)	0.14	2
COc1cc(C(=O)OC(C)C(=O)Nc2ccc3c(c2)OCO3)ccc1OCc1c(C)noc1C (configuration not stated)	0.02	-1.55
O=C(Nc1ccccc1O)c1ccc(C(=O)c2ccccc2)o1	0.86	-0.86
The list continues.
SMILES	KCNQ2 enhance	KCNQ2 enhance baseline
CCOc1cccc2sc(NC(=O)c3ccc(Br)s3)nc12	2.45	-0.29
COc1ccc(NC(=O)c2ccc(F)c(F)c2)c2ccccc12	0.82	0.32
COC(=O)c1ccccc1NC1=C/C(=N\S(=O)(=O)c2ccc(C(=O)O)cc2)c2ccccc2C1=O	4.72	-1.04
COc1ccc(/C=C(/NC(=O)c2ccco2)C(=O)N2CCCC2=O)cc1	2.72	-0.07
Cc1cc(NCCCO)n2nc(-c3cccs3)cc2n1	1.11	-0.99
CCOP(=O)(OCC)/C(C#N)=C(\O)c1ccc(OC)cc1	1.96	0.15
CC(Sc1nncn1C)C(=O)Nc1nnc(C(C)C)s1 (configuration not stated)	1.46	-0.23
COc1ccc(C)cc1S(=O)(=O)N1CC(C)OC(C)C1 (configuration not stated)	0.68	0.7
O=C(N/N=C/c1ccc2nccnc2c1)c1cccc([N+](=O)[O-])c1	0.88	1.04
CCC(C)Nc1nc(N)c([N+](=O)[O-])c(Nc2ccccc2OC)n1 (configuration not stated)	3.94	-2.57
Cc1cc(C)cc(NC(=O)CSc2ccc(-c3ccco3)nn2)c1	1.78	-1.48
COc1ccc(-n2c(SCC(=O)Nc3ncc(Cl)cc3Cl)nc3ccccc32)cc1	0.03	-0.02
Cc1cccn2c(=O)c3cc(C(=O)NC4CCCCC4)n(C)c3nc12	0.77	-0.38
COc1cc([N+](=O)[O-])ccc1NC(=O)NCc1ccccn1	0.02	0.97
O=c1oc2ccccc2c(O)c1/C=N/c1ncccn1	0.08	1.12
Cc1ccc(-n2c(C)c(C)c3c(NCCCO)ncnc32)cc1	0.34	0.33
CC(C)(C)NC(=O)COC(=O)c1ccc(NC(=O)CC#N)cc1	1.45	-0.42
COC(=O)C1C(=O)C2=C(CC1C)Nc1ccccc1NC2c1cccs1 (configuration not stated)	0.73	-0.28
Cc1ccccc1CSc1nnc(C)c(=O)[nH]1	0.7	0.19
CCOc1ccc(/C=C2\SC(=S)N(NS(=O)(=O)c3ccc(C)cc3)C2=O)cc1OC	0.1	1.28

An excerpt from above in order of number of heavy atoms, descending.
SMILES	KCNQ2 enhance	KCNQ2 enhance baseline
O=C(CCCCC(=O)Nc1c(I)cc(I)c(C(=O)O)c1I)Nc1c(I)cc(I)c(C(=O)O)c1I	0.06	-1.22
Cn1c(=O)c2c(nc(OCCc3ccccc3)n2C)n(C)c1=O	0.24	-0.04
O=c1oc2ccccc2c(O)c1/C=N/c1ncccn1	0.08	1.12

Record cards, as listed above. Order of values: KCNQ2 enhance | KCNQ2 enhance baseline
C=C1CCN(c2ccc(C(=O)NCc3ccccc3)cc2[N+](=O)[O-])CC1 across the screens: 0.03 | -2.01
COc1ccc(NC(=O)CN(C)S(=O)(=O)c2ccc3c(c2)CC(C)N3C(C)=O)cc1OC (configuration not stated) across the screens: 1.02 | -2.85
O=S(=O)(c1ccccc1)N1CCN(S(=O)(=O)N2CCCCCC2)CC1 across the screens: 0.17 | 1.96
O=C(CCCCC(=O)Nc1c(I)cc(I)c(C(=O)O)c1I)Nc1c(I)cc(I)c(C(=O)O)c1I across the screens: 0.06 | -1.22

(cont.)
SMILES	KCNQ2 enhance	KCNQ2 enhance baseline
CC(=O)c1ccc(NC(=O)c2ccc3c(Cl)c4c(nc3c2)CCCC4)cc1	0.84	-2.15
CC(C)(C)c1cc(C(=O)Nc2ccccc2)ccn1	0.31	0.31
CCn1ccc(C(=O)Nc2ccc(S(=O)(=O)Nc3ccccc3OC)cc2)n1	0.38	-2.91
COCCNc1nc(-c2ccccc2)nc2ccccc12	0.4	-1.16
CCc1cc(-c2nc(N)ncc2-c2csc(C)n2)c(O)cc1OC	0.3	0.26
O=C(CCCN1C(=O)C2CC=CCC2C1=O)Nc1ccccc1Cl (configuration not stated)	0.67	0
Cc1ccc(C)c(OCC(=O)Nc2cccc(S(=O)(=O)NC3=NCCCCC3)c2)c1	1.36	-0.6
COCC(C)OC(=O)c1c(N)n(CCCN2CCOCC2)c2nc3ccccc3nc12 (configuration not stated)	0.64	-2.08
CC(C)(C)c1ccc(OC(=O)Cn2c(C(F)(F)F)nc3ccccc32)cc1	1.33	-1.64
COc1ccc(C(=O)Nc2c(O)ccc3ccccc23)cc1OC	0.97	0.19
COc1cc2c(cc1OC)-c1cc(Nc3ccccc3C)nc(=O)n1CC2	0.38	-1.99
CCCOc1ccc(CC(=O)N/N=C\c2ccc(F)cc2)cc1	0.54	-0.74
Nn1c(SCC(=O)Nc2ccccc2)nnc1-c1cccnc1	0.02	-0.97
OCC1(c2cc(C(F)(F)F)n[nH]2)CCCCC1	0.59	0.46
O=C(CN1C2=NCCCN2c2ccccc21)c1cccc(Br)c1	3.43	0.04
CCOC(=O)CNC(=O)Cn1cnc2c(nnn2-c2ccccc2)c1=O	1.31	1.42
CCOC(=O)C1=C(C)SC2=NS(=O)(=O)CCN21	0.19	0.1
O=C(Nc1ccc(F)cc1)C1CCC(N2C(=O)c3ccccc3C2=O)CC1 (configuration not stated)	0.43	-1.34
Brc1ccc(CN2CCCCCC2)cc1	1.02	-1.21
COCC(C)n1c(C)cc(C(=O)CSc2nnnn2-c2ccc(O)cc2)c1C (configuration not stated)	2.1	-1.2
c1ccc(-c2cccc(-c3ccccn3)n2)nc1	0.96	-1.86
CCc1noc(C)c1C(=O)NNC(=O)c1nn(CC)c(=O)c2ccccc12	1.32	-0.02
CN1CCN(P(=O)(c2ccccc2)c2nc3ccccc3s2)CC1 (configuration not stated)	0.16	-0.07
O=C(Nc1ccc(F)cc1F)c1cc2ncc(CCCl)cn2n1	0.57	0.05
Oc1ccc(-c2[nH]nc(-c3ccccc3)c2-c2nc3ccccc3[nH]2)cc1	0.43	-0.19
COc1cccc(NC(=O)CSc2nc3ncc(Br)cc3[nH]2)c1	0.96	-0.37
Cc1ccc(S(=O)(=O)N(CC(O)CN2CCOCC2)c2cccc([N+](=O)[O-])c2)cc1 (configuration not stated)	2.18	0.17
Cc1ccccc1-n1nc(C)c2cc(C(=O)N3CCN(S(=O)(=O)c4ccc(Cl)cc4)CC3)sc21	0.87	-1.37
CCOc1ccc(S(=O)(=O)N(CC)CC(=O)NCc2ccco2)cc1C	1.19	0.25
Cc1nc2c3ccccc3nc(NNC(=O)CCC(=O)NCCN3CCN(c4ccccc4F)CC3)n2n1	0.12	-0.21
COc1cc2c(c(OC)c1OC)-c1ccc(N(C)CC(OC)OC)c(=O)cc1[C@@H](NC(C)=O)CC2	0.94	-0.2
O=C(Nc1ccncc1)c1cc(S(=O)(=O)N2CCN(c3ccccc3)CC2)ccc1Cl	0.59	-0.29
O=C(NCCc1ccc(Cl)cc1)c1nnc(Cc2ccc(Cl)cc2)o1	0.08	0.31
CCN(CC)c1ccc2c(c1)C(=O)N(C)C2=O	1.11	3.76
COc1cccc(OC)c1C(=O)NC(C)c1ccccc1 (configuration not stated)	0.08	-1.38

Assay outcomes as filed in PubChem.
